Source: PubChem (several laboratories)
CBX7 inh: CBX7 chromodomain binding inhibitors, primary screen, biochemical, AlphaScreen; Chromobox protein homolog 7 (Homo sapiens), O95931; AlphaScreen His6-CBX7 / biotin-H3K27me3 peptide binding; hits give low values; normalised signal (fraction of DMSO) (concentration not given with the values); hit rate 1.1% among 66,000; AID 1224903, 2016; in the data active means normalised signal below about 0.5;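 further: 100 nL library stock added to about 20 µL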
Target sequence (O95931 whole entry, looked up): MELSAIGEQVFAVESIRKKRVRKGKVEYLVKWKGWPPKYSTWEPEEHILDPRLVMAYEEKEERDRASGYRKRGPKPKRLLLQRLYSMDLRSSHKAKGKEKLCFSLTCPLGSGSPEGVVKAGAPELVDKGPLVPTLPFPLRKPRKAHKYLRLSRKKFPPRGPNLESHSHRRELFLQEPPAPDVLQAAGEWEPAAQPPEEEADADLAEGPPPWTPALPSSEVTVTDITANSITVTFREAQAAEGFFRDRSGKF
CBX7 inh z-score: second read-out of CBX7 inh, no call of its own (marks repeat the call); z-score; measured here: z-score of CBX7 signal; some inactives read as strong as hits; reference of the scale not given here;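 same signal on another scale; lower means less binding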
* = called active by the depositor.

SMILES	CBX7 inh	CBX7 inh z-score
CCc1ccccc1NC(=O)CCc1c(C)nc2cc(-c3ccc(OC)cc3OC)nn2c1C	1	-0.064
Cc1ccc(C(=O)Nc2nonc2C)cc1	0.9	-1.5
COC(=O)c1ccc(C2Nc3ccc4ncccc4c3C3=C2C(=O)CCC3)cc1 (stereo not given)	1.1	2.3
CCCC1=Nc2cc(C(=O)NCCN3CCOCC3)ccc2Sc2ccccc21	0.92	-1.2
COc1ccc(-c2nn(C)c3sc(C(=O)N4CCC5(CC4)OCCO5)cc23)cc1OC	0.96	-1.2
Cc1oc(-c2ccc(Cl)cc2)nc1CN1CCCC(C(=O)NCCN2CCCC2)C1 (stereo not given)	1	0.013
COc1ccc(NC(=O)Nc2ccc3c(c2)N(C)C(=O)CS3)cc1OC	0.85	-3.3
O=C(NC(C(=O)Nc1cccc(Cl)c1)c1ccccc1Cl)c1ccccc1 (stereo not given)	0.98	-0.46
O=C(Nc1ccc(F)cc1)N1CCN(c2ccc3nnc(-c4ccc(F)cc4)n3n2)CC1	0.89	-1.6
Cc1cccc(NC(=O)Cc2ccc(NC3=NC4CS(=O)(=O)CC4S3)cc2)c1 (stereo not given)	0.86	-1.5
Cc1sc(NC(=O)c2ccccc2Br)nc1-c1ccc(-c2ccccc2)cc1	0.84	-4.3
COc1ccc(OC)c(NC(=O)Cc2cn(C)c3ccccc23)c1	0.89	-3.9
Cc1ccc2c(=O)[nH]c(Nc3nc(C)cc(-c4ccccc4)n3)nc2c1	0.94	-1.6
O=C1c2ccccc2C(Nc2ccc(Cl)cc2)N1Cc1ccccc1 (stereo not given)	1.1	0.84
Cc1ccc(-n2c3c(cc(C(=O)NC(C)(C)C)c2=O)C(=O)CCC3)cc1	1.1	1.5
CCOc1ccc(C(=O)Nc2ccc3oc(-c4ccc(OC)cc4)nc3c2)cc1Cl	1.1	0.59
O=S(=O)(c1ccc(Br)cc1)n1c(Cc2ccccc2)nc2ccccc21	1.2	1.7
CCOC(=O)c1cccc(NC(=O)C2(S(=O)(=O)c3ccc(Cl)cc3)CC2)c1	1	0.42
CCC(CC)C(=O)N1CC(=O)Nc2ccc(C)cc2C1c1ccccc1 (stereo not given)	0.99	-0.025
Cc1ccc(NC2c3ccccc3C(=O)N2c2cccnc2)c(Cl)c1 (stereo not given)	0.95	-0.78
CCc1ccc2nc(N3CCC(C(=O)NCc4cccnc4)CC3)sc2c1	1	0.086
CN(Cc1ccccc1)c1nc(-c2ccc(Cl)cc2)nc2ccccc12	1.2	6
CC(=O)NC(CCS(C)(=O)=O)C(=O)Nc1ccccc1Cl (stereo not given)	1	0.055
CCOc1ccc(NC(=O)N(C2CCCCC2)C(C)c2cccnc2)cc1 (stereo not given)	0.98	-1.1
O=C(O)C(Cc1c[nH]c2ccccc12)NC(=O)C(c1ccccc1)c1ccccc1 (stereo not given)	0.99	-0.12

Some of the entries so far, with bars between the fields.
Compound | CBX7 inh | CBX7 inh z-score
COC(=O)c1ccc(C2Nc3ccc4ncccc4c3C3=C2C(=O)CCC3)cc1 (stereo not given) | 1.1 | 2.3
CCCC1=Nc2cc(C(=O)NCCN3CCOCC3)ccc2Sc2ccccc21 | 0.92 | -1.2
COc1ccc(-c2nn(C)c3sc(C(=O)N4CCC5(CC4)OCCO5)cc23)cc1OC | 0.96 | -1.2
Cc1oc(-c2ccc(Cl)cc2)nc1CN1CCCC(C(=O)NCCN2CCCC2)C1 (stereo not given) | 1 | 0.013
COc1ccc(NC(=O)Nc2ccc3c(c2)N(C)C(=O)CS3)cc1OC | 0.85 | -3.3
O=C(NC(C(=O)Nc1cccc(Cl)c1)c1ccccc1Cl)c1ccccc1 (stereo not given) | 0.98 | -0.46
O=C(Nc1ccc(F)cc1)N1CCN(c2ccc3nnc(-c4ccc(F)cc4)n3n2)CC1 | 0.89 | -1.6
Cc1cccc(NC(=O)Cc2ccc(NC3=NC4CS(=O)(=O)CC4S3)cc2)c1 (stereo not given) | 0.86 | -1.5
Cc1sc(NC(=O)c2ccccc2Br)nc1-c1ccc(-c2ccccc2)cc1 | 0.84 | -4.3
COc1ccc(OC)c(NC(=O)Cc2cn(C)c3ccccc23)c1 | 0.89 | -3.9
Cc1ccc2c(=O)[nH]c(Nc3nc(C)cc(-c4ccccc4)n3)nc2c1 | 0.94 | -1.6
O=C1c2ccccc2C(Nc2ccc(Cl)cc2)N1Cc1ccccc1 (stereo not given) | 1.1 | 0.84
Cc1ccc(-n2c3c(cc(C(=O)NC(C)(C)C)c2=O)C(=O)CCC3)cc1 | 1.1 | 1.5
CCOc1ccc(C(=O)Nc2ccc3oc(-c4ccc(OC)cc4)nc3c2)cc1Cl | 1.1 | 0.59
O=S(=O)(c1ccc(Br)cc1)n1c(Cc2ccccc2)nc2ccccc21 | 1.2 | 1.7
CCOC(=O)c1cccc(NC(=O)C2(S(=O)(=O)c3ccc(Cl)cc3)CC2)c1 | 1 | 0.42

More compounds follow:
SMILES	CBX7 inh	CBX7 inh z-score
CCOc1cccc2sc(NC(=O)c3ccc(OC)cc3)nc12	1	1.3
Cc1sc(-n2cccc2)c(C(=O)Nc2ccc(Br)cc2F)c1C	1	0.17
O=C(CN1CCN(Cc2ccccc2Cl)C1=O)NCC1CCCO1 (stereo not given)	0.97	-0.37
COc1ccc(CCNC(=O)C2CCCN(Cc3nc(-c4ccc(Cl)cc4)oc3C)C2)cc1OC (stereo not given)	1.1	1.4
Cc1ccc(-c2nc(CS(=O)(=O)CC(=O)Nc3cc(F)ccc3F)c(C)o2)cc1	0.91	-0.19
Cc1ccn2c(Nc3ccccc3C)c(-c3cccc(Cl)c3)nc2c1	1.2	1.5
CCc1ccccc1NC(=O)C1=CCN(S(=O)(=O)c2ccc(F)cc2)CC1	1	0.64
CCOc1ccc(N2C(=O)CC(N3CCC(O)(c4ccc(Cl)cc4)CC3)C2=O)cc1 (stereo not given)	1.1	2.1
Cc1cc(N2CCN(c3ccccc3)CC2)n2ncnc2n1	1.1	1.3
CCC(Oc1ccccc1F)C(=O)Nc1c(C(=O)c2ccc(Br)cc2)oc2ccccc12 (stereo not given)	1	0.12
CC1(C(=O)NC2CCCCC2)CCC(=O)N1Cc1cccs1 (stereo not given)	0.97	-0.67
CCOc1ccc(NC(=O)c2c(NC(=O)c3cccc(C)c3)sc3c2CCC3)cc1	1.2	9.6
O=C(CSc1nnc(-c2cccs2)o1)N1CCCc2ccccc21	1.1	1.6
CCOc1cc2c(cc1OCC)C1C(C(=O)Nc3cc(C)ccn3)c3ccccc3C(=O)N1CC2 (stereo not given)	0.19*	-6.5*
O=C(CCn1c(=O)c2sccc2n(Cc2ccc(F)cc2)c1=O)NCc1ccc2c(c1)OCO2	1	0.13
O=C1Cc2cc(S(=O)(=O)NCc3cccs3)ccc2N1	0.99	-0.28
CCOC(=O)Cc1csc(NC(=O)COc2ccc(C)cc2Br)n1	1.2	3.9
O=C(Nc1cccc(C(F)(F)F)c1)c1cc(-c2ccco2)on1	1.1	1.5
CCCCCOc1ccc(NC(=O)c2c(-c3ccccc3Cl)noc2C)cc1	1	0.19
Cc1ccc(OCc2nc(C#N)c(N3CC(C)CC(C)C3)o2)cc1 (stereo not given)	0.53	-2.9
CN(CCC#N)C(=O)c1ccc2c(c1)N(Cc1ccccc1Cl)C(=O)c1ccccc1S2	0.82	-2.4
Cc1nnc(Sc2cc(C(=O)NC3CCCCC3)c3ccccc3n2)s1	1	0.99
Cn1c(C(Cc2ccccc2)NC(=O)C(C)(C)C)nc2ccccc21 (stereo not given)	0.98	-0.24
COc1ccc(OC)c(/C=c2\sc3nc(-c4ccccc4)c(-c4ccccc4)n3c2=O)c1	0.95	-0.85
COc1ccccc1NC(=O)c1c(NC(=O)c2ccc(C)cc2)sc2c1CCCCC2	0.99	-0.17

Other entries follow:
SMILES	CBX7 inh	CBX7 inh z-score
CCOCCCNC(=O)C(NC(=O)c1ccc(=O)[nH]c1)c1ccc(C)cc1 (stereo not given)	1.1	0.98
Cn1cnnc1SCC(=O)Nc1ccc(Br)cc1C(F)(F)F	1.1	4.1
COc1ccc(-n2c(C)nc3cc(C(=O)NCCc4ccc(OC)c(OC)c4)ccc32)cc1	0.93	-2.4
O=C(CN1CCN(Cc2ccccc2Cl)C1=O)NCc1cccnc1	0.9	-1.5
O=C1CC(NCc2ccccc2)C(=O)N1c1ccccc1 (stereo not given)	1.1	1.8
O=C(CCCN1C(=O)c2cccnc2C1=O)NCC1COc2ccccc2O1 (stereo not given)	0.92	-0.17
Cc1cc(N2CCOCC2)nc2ccc(NC(=O)CCC(=O)NC3CCCCCC3)cc12	1	0.06
Cc1n[nH]c(C)c1CCCCOc1ccc(Cl)cc1	0.88	-1.8
COc1ccc(N(CC(=O)Nc2ccc(C)cn2)S(=O)(=O)c2c(C)nn(C)c2C)cc1	1.2	1.3
Cc1cc(=O)n2nc(N3CCC(C(=O)NCc4ccccc4Cl)CC3)sc2n1	0.98	-1
COc1ccc(S(=O)(=O)Nc2ccccc2Cl)c2cccnc12	1.1	0.8
CC1CCC(NC(=O)C2(C)CCC(=O)N2Cc2cccs2)CC1 (stereo not given)	1.1	1.6
Cc1ccc(C(=O)Nc2ccc3nc(SCC(=O)N4CCOCC4)sc3c2)cc1	1.1	0.69
CC(C)Oc1ccc(C(=O)Nc2cc(-c3nc4ncccc4o3)ccc2Cl)cc1	1.1	0.91
Cc1ccc2cc(CCNC(=O)c3ccc(Br)cc3)c(=O)[nH]c2c1C	1.1	1.2
COc1cc(OC)cc(-c2nnc(SCC(=O)N3CCCCC3)o2)c1	1.2	1.7
COc1ccc(CCNc2ncc3c(n2)CC(c2ccc(C(C)(C)C)cc2)CC3=O)cc1 (stereo not given)	1.1	1.3
Cc1c(C(=O)N2CCC(C)CC2)sc2ncnc(N3CCN(c4ccccn4)CC3)c12	1	0.1
COc1ccc(CNC(=O)c2cnn3c(C)c(Cc4cccc(Cl)c4)c(C)nc23)cc1	1	-0.033
Cc1ccc2c(c1)N(CCCC(=O)NCCC1=CCCCC1)C(=O)CO2	0.98	-0.53
Cc1cccc(Cc2c(C)nc3c(C(=O)N4CCC5(CC4)OCCO5)c[nH]n3c2=O)c1	0.92	-1
COc1ccc(C2CC(=O)N(CC(=O)Nc3ccccc3)c3ccccc3S2)cc1 (stereo not given)	0.9	-1.7
COc1ccc(CCNC(=O)C2CCN(S(=O)(=O)c3cccnc3)CC2)cc1OC	0.99	-0.19
CCC(=O)N1CCc2cc(S(=O)(=O)NCCN3CCC(C)CC3)ccc21	1.1	2.3
CCC(C)NC(=O)CN1C(=O)CSc2ccccc21 (stereo not given)	1	0.15

(listing goes on)
SMILES	CBX7 inh	CBX7 inh z-score
CCC1Oc2ccccc2N(CC(=O)NCc2ccccc2)C1=O (stereo not given)	1.1	0.86
CCOc1ccccc1NC(=O)c1c(NCc2cccnc2)sc2c1CCCCC2	0.71	-15
COc1ccc(Cl)cc1-n1c(C)nc2cc(C(=O)NCCc3ccccc3)ccc21	0.98	-0.76
CCS(=O)(=O)NC(C)C(c1cccs1)N1CCN(C)CC1 (stereo not given)	1	0.16
CCn1cc(C(=O)NCCC(C)C)c(=O)c2ccc(C)nc21	1	0.45
CCCCNC(=O)c1cccc2c1C(=O)N(C1CCCCC1)C2	0.99	-0.1
CC1CCN(S(=O)(=O)c2ccc3nc[nH]c(=O)c3c2)CC1	1	0.12
COCCN(CCOC)c1nc(-c2ccccc2)nc2ccccc12	1.2	2.1
Cc1cc(C)n(-c2ccc(F)cc2)c(=O)c1C(N)=O	1	1.5
CC1CN(C)C(C)c2c1oc1ccc([N+](=O)[O-])cc21 (stereo not given)	0.99	-0.18
Cc1ccc(NC(=O)CCc2c(C)nc3cc(-c4ccccc4)nn3c2C)c(C)c1	1	0.1
COc1cccc(OCCOc2ccc(-c3nc4sc5c(c4c(=O)[nH]3)CCCC5)cc2)c1	1.2	4.8
O=S(=O)(c1ccc2nc(-c3ccccc3)[nH]c2c1)N1CCCCC1	0.78	-0.29
CCCN1CCN(CCCNC(=O)c2cc3c(s2)-c2ccccc2OC3)CC1	1.1	2.8
CC1CCN(c2nc3ccc(C(=O)N4CCCCC4)cc3s2)CC1	1.1	1.3
COc1ccc(-c2nc3cc(NC(=O)c4ccc(OCc5ccccc5)cc4)ccc3o2)cc1	1	1.3
CCn1cc(C(=O)Nc2ccccc2OC)c(=O)c2ccc(C)nc21	1.1	0.85
CC(=O)NC(CCS(C)(=O)=O)C(=O)Nc1nccs1 (stereo not given)	1.1	3.3
Cc1ccc(NC(=O)Cc2[nH]c3ccccc3c2Sc2ccccc2)cc1	0.94	-2.4
C=CCNC(=O)CN1C(=O)C(CC)Sc2ccccc21 (stereo not given)	1	-0.16
CCN(CCCNC(=O)c1n[nH]c(=O)c2ccccc12)c1cccc(C)c1	0.92	-1.5
COc1ccc(OC)c(CNC(=O)c2cc(-c3cccs3)nc3ccccc23)c1	0.99	-0.34
Cc1c(NC(=O)COc2ccc(Cl)cc2)cccc1-c1nc2ncccc2o1	0.97	-0.54
CCOC(=O)N1CCC(N2C(=O)c3ccc(C(=O)Nc4cccc(OC)c4)cc3C2=O)CC1	1.4	0.88
Cc1cc(C)c(C#N)c(OCc2ccccc2Cl)n1	1.1	2.2

Going on with the list:
SMILES	CBX7 inh	CBX7 inh z-score
Cc1c(Cl)cccc1N1C(=O)C2C3c4ccccc4C(C)(c4ccccc43)C2C1=O (stereo not given)	0.78	-2.5
Cc1ccc(NC(=O)Cn2nc(Cc3ccncc3)c3ccccc3c2=O)nc1	1	0.3
COc1ccc2c(c1)CCc1c(C(=O)NC(C)C)noc1-2	1.1	0.71
CCOc1ccc2c(c1)c(=O)c(C(=O)c1ccc3c(c1)OCO3)cn2Cc1ccc(F)cc1	1.1	0.49
O=C(NCc1ccncc1)C(=O)Nc1ccccc1	1.1	2.1
CCc1cccc(NC(=O)C2=CCN(S(=O)(=O)c3ccc(OC)cc3)CC2)c1	0.98	-0.83
COc1ccc(Nc2c(-c3ccccn3)nc3cc(C)ccn23)cc1	0*	-29*
COc1ccc(-c2ccc(=O)n(CC(=O)Nc3cccc(SC)c3)n2)cc1	0.9	-1.3

Not all compounds are listed; the hit share may differ from the screen's.
